Assay outcomes from PubChem.
Bead autofluor – counter-screen for toxin protease inhibitors: compound fluorescence; compound autofluorescence counterscreen, microsphere flow cytometry; stronger effect = higher value; fluorescence intensity (no concentration beside the values); hit rate 3.1% among 360,000; AID 624483;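 active = at least 3 SD above the mean of all compounds, about 16000 in these data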;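 note: 100 nL of 1 mM stock went into each well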
Sa RN4220 lethal – kills Staphylococcus aureus RN4220; S. aureus RN4220 growth, OD600, 16 h; inhibition, % (no concentration beside the values); hit rate 0.33% among 330,000;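 active = z-score of -3 or lower and OD600 up to 0.18 on both plates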;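 note: plate controls were untreated cells for no effect and reference antibiotic for full effect; stock transfer was 100 nL into about 80 µL; one replicate is shown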
ugtP null kill – compounds lethal to S. aureus RN4220 ugtP deletion mutant | OD600 growth, 16 h; some inactives read as strong as hits | growth inhibition, % (concentration not given with the values) | hit rate 0.54% among 330,000 | AID 1259309;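 active = z-score under -3 and OD600 up to 0.15 on both plates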;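 note: plate controls were untreated wells for no effect and antibiotic for full effect; wells of about 80 µL received 100 nL stock; the first replicate is given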
Mtb hypoxia inh – inhibitors of hypoxia-regulated fluorescent reporter in Mycobacterium tuberculosis; M. tuberculosis hypoxia-regulated fluorescent reporter, fluorescence; fluorescence inhibition, % (no concentration beside the values); hit rate 0.1% among 300,000; AID 1159583;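 active = 35 to 45% if threefold the growth effect, above 45% if 1.5-fold the growth effect; inactive = the rest, general growth blockers included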;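 note: wells of about 50 µL received 100 nL stock; 0% = vehicle wells and 100% = reference inhibitor wells; whole bacteria with a GFP reporter of the hypoxia response; strong numbers were not always called active; many hits fall short of the cut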
PrP 5UTR inh – inhibition of PrP 5' UTR reporter expression | cell-based PrP 5' UTR mRNA reporter, plate reader | inhibition, % (test concentration not listed) | hit rate 0.35% among 340,000;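 active = every replicate at 50% or more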;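 note: 0 = median of the neutral control wells; tested in H4 reporter cells; numbers are from one replicate; inactives centre near -14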
BJeLR viability – BJeLR cell viability loss. BJeLR (HRASV12) viability, CellTiter-Glo ATP luminescence, 48 h; reference of the scale not given here. inhibition, % (test concentration not listed). hit rate 0.17% among 300,000;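 active = replicate mean above 50%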;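 note: 50 nL library stock added to about 25 µL; numbers are from one replicate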
Mtb hypoxia inh growth – also measured in Mtb hypoxia inh; calls as there; growth inhibition, %; measured here: M. tuberculosis growth (absorbance);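 0% = vehicle and 100% = reference antibiotic; read after six days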
Active calls of the source: *; / = no result given.

Keys – A = Bead autofluor; B = Sa RN4220 lethal; C = ugtP null kill; D = Mtb hypoxia inh; E = Mtb hypoxia inh growth; F = PrP 5UTR inh; G = BJeLR viability
Nc1cc(C(=O)c2ccccc2)ccc1[N+](=O)[O-]
  A: 4625	B: 11	C: 1	D: 5	E: -1	F: -10	G: 5

COc1ccc(CN2CC(C(=O)NCCCOC(C)C)CC2=O)cc1 (stereo unspecified)
  A: 2800	B: -9.2	C: -9	D: 2	E: 8	F: -14	G: 2

O=C(CN1C(=O)NC2(CCCCC2)C1=O)Nc1cc(C(F)(F)F)ccc1N1CCOCC1
  A: 6207	B: 1.5	C: 1	D: 0	E: -4	F: -8	G: /

CC(=O)Nc1cnn(Cc2ccc(Br)cc2)c1
  A: 24279*	B: 1.0	C: 3	D: -5	E: 3	F: -42	G: 5

COc1ccc(/C=C/C(=O)O)cc1COc1cccc(C)c1
  A: 2060	B: 13	C: -6	D: 21	E: 10	F: -1	G: 3

CCOC(=O)N1CCC(N2C(=O)c3ccc(C(=O)NCc4ccco4)cc3C2=O)CC1
  A: 6594	B: 3.8	C: 3	D: 2	E: -1	F: -19	G: -4

Cc1cc(C)c(C(N)=O)c(SCC(=O)c2cc(C)n(-c3cc(C)on3)c2C)n1
  A: 8127	B: 3.7	C: 0	D: 1	E: 2	F: -46	G: /

Cc1ccccc1COCCN1CCN(S(=O)(=O)c2ccccc2)CCC1=O
  A: 3970	B: 6.0	C: 3	D: 3	E: 2	F: -14	G: 6

COc1cc(F)cc(C2=CC(=O)CC(c3ccc(F)cc3)C2)c1 (stereo unspecified)
  A: /	B: 0.2	C: 2	D: 6	E: 11	F: /	G: /

CCOC(=O)CSc1nc2c(c(=O)[nH]c(=O)n2C)n1C/C=C(/C)Cl
  A: 24116*	B: 4.6	C: 13	D: 9	E: 3	F: -6	G: -5

Cc1ccc(N=C2NC(=O)C(CO)(CO)S2)cc1
  A: 3871	B: 6.2	C: 8	D: 10	E: 6	F: -20	G: 4

CC1Cc2cc(/C(O)=C3/C(=O)C(=O)N(CCCn4ccnc4)C3c3cccc([N+](=O)[O-])c3)ccc2O1 (stereo unspecified)
  A: 4473	B: 7.3	C: 15	D: 1	E: -6	F: -3	G: -1

CCOC(=O)N1CCN(c2ncnc3scc(-c4ccccc4)c23)CC1
  A: 3724	B: -0.5	C: 11	D: 4	E: -3	F: -7	G: 0

COc1cc(C(=O)Nc2cccc(C)c2C)c(Br)c(OC)c1OC
  A: 2647	B: 9.6	C: 7	D: 8	E: 4	F: -14	G: -3

In a second layout: entries from further up
structure	Bead autofluor	Sa RN4220 lethal	ugtP null kill	Mtb hypoxia inh	Mtb hypoxia inh growth	PrP 5UTR inh	BJeLR viability
Nc1cc(C(=O)c2ccccc2)ccc1[N+](=O)[O-]	4625	11	1	5	-1	-10	5
COc1ccc(CN2CC(C(=O)NCCCOC(C)C)CC2=O)cc1 (stereo unspecified)	2800	-9.2	-9	2	8	-14	2

Structural class, the entries above containing an aryl thioether with sulfur outside any ring
Keys – A = Bead autofluor; B = Sa RN4220 lethal; C = ugtP null kill; D = Mtb hypoxia inh; E = Mtb hypoxia inh growth; F = PrP 5UTR inh; G = BJeLR viability
Cc1cc(C)c(C(N)=O)c(SCC(=O)c2cc(C)n(-c3cc(C)on3)c2C)n1
  A: 8127	B: 3.7	C: 0	D: 1	E: 2	F: -46	G: /

CCOC(=O)CSc1nc2c(c(=O)[nH]c(=O)n2C)n1C/C=C(/C)Cl
  A: 24116*	B: 4.6	C: 13	D: 9	E: 3	F: -6	G: -5

Quoted from the listing:
Under ugtP null kill, Cc1ccc(N=C2NC(=O)C(CO)(CO)S2)cc1 is entered as 8
Under ugtP null kill, Cc1ccccc1COCCN1CCN(S(=O)(=O)c2ccccc2)CCC1=O is entered as 3
Under Mtb hypoxia inh growth, CC1Cc2cc(/C(O)=C3/C(=O)C(=O)N(CCCn4ccnc4)C3c3cccc([N+](=O)[O-])c3)ccc2O1 (stereo unspecified) is entered as -6
Under Sa RN4220 lethal, COc1ccc(CN2CC(C(=O)NCCCOC(C)C)CC2=O)cc1 (stereo unspecified) is entered as -9.2
